Screening results deposited in PubChem by National Center for Advancing Translational Sciences (NCATS).
NPR1 antag = blocks ANP-stimulated signaling of human Npr1 receptor; HEK293 hNpr1 GloSensor cGMP, ANP-stimulated luminescence; P16066; hit rate 1.6% among 76,000; Potency, µM (top dose mostly 46.3 µM), for the others: top-dose activity change, negative = inhibition, actives largely listed as inhibitors; active = well fitted inhibition curve with a large enough effect; inconclusive = small, poorly fitted or top-dose-only effect; inactive = no such curve, though single readings can be large or run the other way;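 further: nearly all actives have a fitted effect of over 60% in size; nearly all hits also lower the signal before the agonist is added; a reference antagonist and vehicle were the controls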
Target sequence (P16066 whole entry, looked up): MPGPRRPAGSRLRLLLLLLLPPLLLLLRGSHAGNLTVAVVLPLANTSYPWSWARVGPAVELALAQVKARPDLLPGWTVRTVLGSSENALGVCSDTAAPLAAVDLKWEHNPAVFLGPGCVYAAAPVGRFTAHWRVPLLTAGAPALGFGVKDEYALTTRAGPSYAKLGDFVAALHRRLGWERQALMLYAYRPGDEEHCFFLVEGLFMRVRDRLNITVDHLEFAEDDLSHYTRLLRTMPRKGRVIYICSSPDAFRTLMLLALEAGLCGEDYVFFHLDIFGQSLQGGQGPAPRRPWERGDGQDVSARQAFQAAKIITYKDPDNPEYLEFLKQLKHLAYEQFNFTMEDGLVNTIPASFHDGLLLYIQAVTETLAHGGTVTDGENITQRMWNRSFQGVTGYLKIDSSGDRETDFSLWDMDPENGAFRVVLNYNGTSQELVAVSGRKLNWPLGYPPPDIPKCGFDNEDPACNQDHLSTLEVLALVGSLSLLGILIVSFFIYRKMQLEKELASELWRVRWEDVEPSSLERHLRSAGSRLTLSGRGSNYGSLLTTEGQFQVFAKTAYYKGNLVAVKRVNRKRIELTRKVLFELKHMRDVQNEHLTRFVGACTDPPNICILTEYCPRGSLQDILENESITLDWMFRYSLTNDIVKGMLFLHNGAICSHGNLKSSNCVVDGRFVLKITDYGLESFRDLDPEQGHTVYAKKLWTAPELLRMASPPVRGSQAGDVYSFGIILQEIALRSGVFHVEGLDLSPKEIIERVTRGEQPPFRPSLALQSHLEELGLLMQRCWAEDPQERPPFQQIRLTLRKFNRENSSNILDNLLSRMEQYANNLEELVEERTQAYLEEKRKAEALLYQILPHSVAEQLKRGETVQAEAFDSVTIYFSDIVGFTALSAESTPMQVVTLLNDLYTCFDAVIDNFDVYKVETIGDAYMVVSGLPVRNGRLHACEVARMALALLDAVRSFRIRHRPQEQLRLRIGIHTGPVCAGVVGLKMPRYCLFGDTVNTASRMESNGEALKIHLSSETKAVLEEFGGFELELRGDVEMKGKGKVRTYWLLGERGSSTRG
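HEK293 cells stably expressing human Npr1 and cGMP GloSensor pGS-40F, loaded 2 h with 2% GloSensor reagent, given compound 30 min at room temperature. Luminescence read before and 20 min after 0.1 nM hNppA.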
Active calls of the source: *; ? = inconclusive; & = joins results of further samples; [ ] = remark or other dose. On the % scale 0 is the no-effect control and ±100 the full control effect; potency means the concentration at half of the fitted maximal effect.

compound | NPR1 antag
COc1ccc(N2CC(c3noc(-c4cc(OC)c(OC)c(OC)c4)n3)CC2=O)cc1 (configuration not stated) | 8%
O=C(NCc1ccc(F)cc1)N1CCC(OC2CCN(Cc3ccccc3)CC2)CC1 | -1%
Cc1cnc(CCNC(=O)CC2CCCCC2)n1CC1CC1 | 7%
CCc1nnc(CN(C)C(=O)c2cccc(CCC(C)(C)O)c2)o1 | 0%
O=C1[C@@H]2C[C@@H](CN2C(=O)c2ccno2)Oc2ccccc2N1CC1CC1 | -2%[70.6 µM]
CCOc1ccccc1CNC(=O)[C@@H]1CN(S(C)(=O)=O)C[C@H]1c1ccncc1 | 0%
COc1ccc(C(=O)N[C@@H]2CCC[C@@H]2C(=O)N2CCN(c3cccc(OC)c3)CC2)cc1 | 4%
Cc1cccc(OCC2(CNS(=O)(=O)c3ccc(F)cc3)C[C@@H](O)[C@@H](O)C2)n1 (some centres not stated) | 3%
OC(c1nc(Nc2cccc(F)c2)n[nH]1)C1CC1 (configuration not stated) | 3%[70.6 µM]
Cc1noc(-c2ccn3c(CNC(=O)c4ccc(F)cc4Cl)nnc3c2)n1 | -19%
Cc1ccc(NC(=O)N2CCC(OC3CCN(S(C)(=O)=O)CC3)CC2)cc1F | -23%
CCOC(=O)c1ccc(NC(=O)c2ccc3c(c2)N(CC)C2CCCN2C3=O)cc1 (configuration not stated) | -4%
COCc1ccc(C(=O)N2CC[C@@H](NC(=O)c3cnccn3)[C@H](O)C2)s1 | 11%
O=[S+]1([O-])NC2(CCCN(Cc3ccc(C(F)(F)F)cc3)C2)CNc2ccccc21 (configuration not stated) | -11%
CCCS(=O)(=O)N1CCc2nc(N3CCc4ccccc4C3)[nH]c(=O)c2CC1 | 2%
COc1ccc(-c2cc(N3CCCC(NC(=O)c4nccc5ccccc45)C3)n[nH]2)cc1 (configuration not stated) | -19%
COCc1nc2c(NC(=O)CC3CCCCC3)cccn2n1 | -9%
CN(Cc1nccs1)C(=O)C(c1cccc(F)c1)N(C)C (configuration not stated) | 2%
COCc1cc(CNC(=O)CC(c2ccccc2)c2ccccc2Cl)[nH]n1 (configuration not stated) | 1%
O=C(Nc1ccc2c(N3CCCC3)ncnc2c1)c1cccc(Br)c1 | -19%
Cc1ccc(-n2ncc3c2CC(C)(C)CC3NS(=O)(=O)c2cn(C)cn2)cc1 (configuration not stated) | 1%
O=C(CC1CCOCC1)Nc1ccccc1 | 0%
O=C(c1ccccc1F)N1CCC2(CC1)C(=O)NN=C2c1cccnc1 | 24%
CCc1nc(-c2c3n(c(=O)n(CC(=O)NCc4ccc(Cl)cc4)c2=O)CCCC3)no1 | -1%
Cc1noc(C)c1CN1C[C@@H]2C(C(=O)Nc3ccccc3)=NO[C@@H]2C1 | 6%[70.6 µM]

Remaining list, next part:
compound | NPR1 antag
O=S(=O)(Cc1ccccc1)N1C[C@@H](F)[C@@H](OCc2nc3ccccc3o2)C1 | 3%[70.6 µM]
CCCc1ccc(S(=O)(=O)N2CCCC(Cn3c(C)nc4cccnc43)C2)cc1 (configuration not stated) | ?
CNC(=O)[C@H]1C[C@H](Oc2ccccc2)CN1C(=O)NCc1ccc(F)cc1 | 11%
CNC(=O)[C@@H]1CN(C(=O)c2ccc3ncccc3c2)C[C@H]1c1n[nH]c(C)n1 | 3%
Cc1nn(-c2ccccc2[N+](=O)[O-])c(C)c1[C@@H]1C=C[C@@H](NC(=O)Nc2cccc(C#N)c2)C1 | ?
Cc1ccc(CC(=O)NCc2nnc3cc(-c4nc(C(C)C)no4)ccn23)cc1 | -9%
CC(C)CCN1CCCC(c2nn(-c3ccccc3)c(=O)[nH]2)C1 (configuration not stated) | -5%[70.6 µM]
O=c1[nH]nc2n1CCN(Cc1ccc(F)c(Br)c1)CC2 | 0%
COc1ccc(NC(=O)N2CCCCCC2c2nc(-c3cccnc3)no2)cc1 (configuration not stated) | -11%
Clc1ccc(CNC2(Cc3cc(COc4ccccc4)on3)COC2)cc1 | -21%[70.6 µM]
COCCc1noc([C@@H]2CN(C3CCCCCC3)C[C@H]2CO)n1 | 0%
O=C(NC[C@H]1O[C@H](Cc2cc(CN3CCOCC3)on2)CC[C@@H]1O)N1CCOCC1 | 0%[70.6 µM]
C=CCC1(CO)CCCN(C(=O)CCCOc2ccccc2)C1 (configuration not stated) | 0%
COc1ccc2cc(C(=O)N3CCN(C(=O)N4CC5CC(C4)[C@H]4CCCC(=O)N4C5)CC3)[nH]c2c1 (some centres not stated) | -1%
O=[S+]([O-])(Nc1ccccc1)c1ccc2c(c1)OCCN(Cc1ccccn1)C2 | -24%[70.6 µM]
CN1c2cc(C(=O)NC3CCN(Cc4ccccc4)CC3)ccc2C(=O)N2CCCCC21 (configuration not stated) | 0%
CCCNC(=O)N(C1CCOCC1)C1CCN(S(=O)(=O)c2cn(C)cn2)CC1 | -4%
Cc1ccc(-c2ncc(C(=O)N3CCOC(CCN)C3)c(=O)[nH]2)cc1 (configuration not stated) | 0%
CCOCCCNC(=O)NCC1Cn2cccc2CN1Cc1ccccc1 (configuration not stated) | 1%
CCCc1ccc(S(=O)(=O)N2CCN(C3CCN(CCC(C)C)C3=O)CC2)cc1 (configuration not stated) | -22%
CCCN1C(=O)CC[C@H]2CN(C(=O)c3ccc(F)c(OC)c3)CC[C@H]21 | 13%
CCc1cnc(C)nc1N1CCOC(c2ccc(Cl)cc2)C1 (configuration not stated) | 10µM*
CN(C)C(=O)C1CN(C(=O)Nc2ccc(F)cc2F)CC12CCOCC2 (configuration not stated) | -9%
Cc1cc(C)n(CC(=O)N[C@@H]2CN(Cc3ccccc3)C[C@H]2CN(C)C)n1 | 2%
CN1N=C(C(=O)N2CCCC(CCc3ccc(F)c(F)c3)C2)CCC1=O (configuration not stated) | -2%

(cont.)
compound | NPR1 antag
C=CCN(Cc1cccc(OC)c1)C(=O)c1ccccc1C#N | 5%
Cn1cc(-c2ccc(F)cc2)c2nc(CO)cn2c1=O | 1%[70.6 µM]
COc1ccc(CN2Cc3cc(NC(=O)c4ccc(F)cc4F)ccc3OC(C)C2=O)c(OC)c1 (configuration not stated) | -18%
COCCNC(=O)[C@@H]1C[C@@H](O)CN1C1CCN(C(=O)COc2cccc(C)c2)CC1 | -2%
Cc1noc(C)c1CC(=O)N1CCCCCC1c1nnc(-c2ccccc2)o1 (configuration not stated) | 5%
O=C(NCc1ccccc1-n1cccn1)C1NCCc2[nH]cnc21 (configuration not stated) | 4%
Cc1nc(-c2c3n(c(=O)n(Cc4ccc(Cl)cc4)c2=O)CCCC3)no1 | -1%
O=C1CC(c2ccccc2)N(C(=O)C2CC2)CCCN(C(=O)COc2ccc(F)cc2)CCN1 (configuration not stated) | -7%
CN(C)S(=O)(=O)N1CCN(C(=O)Cn2nc3c(cc2=O)CCCC3)CC1 | 4%
C=CCNC(=O)N[C@H]1C[C@@H](C(=O)N[C@H](Cc2c[nH]c3ccccc23)C(N)=O)N(C(=O)C2CC2)C1 | 6%
O=C(c1ccccc1F)N1CCn2c(nn(-c3ccc(F)cc3F)c2=O)C1 | 26%
CCNC(=O)CCc1c(C)nn(-c2cccc(C)c2)c1Oc1ccc(F)cc1F | -17%
CCc1ccc(CN2CCC(Oc3ccc(C(=O)NCCOC)cc3Cl)CC2)o1 | 5%
Cc1ccc(NC(=O)COc2ccc(-c3nnc4n3CCCC4)cc2)cc1F | -7%
COc1ccc(CN2CCC3OCCN(Cc4ccccc4)C(=O)C3C2)cn1 (configuration not stated) | -11%[70.6 µM]
O=C(NCc1ccccc1)C1Cn2cccc2C(=O)N1Cc1cccnc1 (configuration not stated) | 3%
COC(=O)c1cc2n(n1)CCN(C(=O)c1cc(-c3ccccc3O)n[nH]1)C2 | -9%
O=C(NCCN1CCOCC1)C1CCC(=O)N(CCCc2ccccc2)C1 (configuration not stated) | -2%
Cc1cc(C(=O)N2CCC3(CC2)CNC(=O)C3)cc(S(N)(=O)=O)c1C | -1%
CN(Cc1nccs1)c1ccc(-c2nc(-c3ccccc3F)no2)cn1 | ?
CC(C)(O)CCc1ccc(C(=O)NCCc2c[nH]c(=O)[nH]c2=O)cc1 | -1%
O=C(NCc1ccncc1)C1CN(C(=O)COc2ccccc2)CC12CCOCC2 (configuration not stated) | 11%
CC(C)CC(=O)N1C(C(=O)NCC2CCCO2)COC12CCCC(C)C2 (configuration not stated) | 5%
O=C(Cc1cccc(Cl)c1)NC1CCN(c2nc3ncccc3o2)CC1 | -2%&-16%
CN(C)CCCNC(=O)CC1Sc2ncccc2N(C)C1=O (configuration not stated) | 1%

Part of the list above in a different format.
Cc1nc(-c2c3n(c(=O)n(Cc4ccc(Cl)cc4)c2=O)CCCC3)no1
  NPR1 antag: -1%

Cn1cc(-c2ccc(F)cc2)c2nc(CO)cn2c1=O
  NPR1 antag: 1%[70.6 µM]

CN(Cc1nccs1)C(=O)C(c1cccc(F)c1)N(C)C (configuration not stated)
  NPR1 antag: 2%

O=C(CC1CCOCC1)Nc1ccccc1
  NPR1 antag: 0%

Next compounds follow:
compound | NPR1 antag
COCCOc1ccc2c(n1)CCN(C(=O)c1ccccc1OC)C2 | 0%
COCCN1C(=O)[C@H]2CN(Cc3ccc(F)c(F)c3)C[C@H]2C1=O | 0%
O=C(NC1CCCC1)N1CCC2(CC1)CC(N(C(=O)c1ccccc1)C1CC1)CCO2 (configuration not stated) | 4%
O=C(NCc1csc(-c2cnccn2)n1)[C@H]1CCC[C@H](O)C1 | 10%
Cc1noc(C)c1Cc1ccc(C(=O)NC2CCc3nnc(C)n3CC2)o1 (configuration not stated) | 0%
Cc1n[nH]c(C)c1CCC(=O)N[C@@H]1CN(S(C)(=O)=O)C[C@H]1CN(C)C | 7%
CCc1ccccc1NC(=O)N1CCC(Oc2ncccc2C(=O)N2CCOCC2)C1 (configuration not stated) | -9%
O=C(c1ccoc1)N1CCC(c2noc(-c3ccncc3)n2)C1 (configuration not stated) | -4%
Cc1noc2c(NCc3ccncc3)cc(-c3ccc(Cl)cc3)nc12 | -3%[70.6 µM]
O=c1n(-c2ccc(F)cc2F)nc2n1CCN(Cc1ccccc1)C2 | 26%
Cc1noc([C@@H]2CC(F)(F)CN2S(=O)(=O)c2ccccc2)n1 | 2%
COC(=O)[C@H](Cc1ccc(OC)cc1)NC(=O)[C@@H]1CN(S(C)(=O)=O)CCN1C(C)=O | 1%
COc1ccc(OCc2nc(C3CN(C(=O)C4(c5ccccc5)CC4)C3)no2)cc1 | -4%
Cc1ccc(-c2ncc(C(=O)Nc3ccc(F)cc3C)c(-c3ccncc3)n2)cc1 | -3%
CN1[C@@H](CCC(=O)NCc2ccc(F)cc2)CNC(=O)[C@@H]2[C@H]1CCN2Cc1ccc(C(F)(F)F)cc1 | -19%
Cn1ccnc1CN1C(=O)CO[C@H](c2ccc(NC(=O)CCc3ccccc3)cc2)[C@H]1CO | 1%
CC1(C)CC1(CNC1CCN(c2ccc(C(=O)NCCN3CCOCC3)cc2)CC1)c1ccccc1 (configuration not stated) | -8%
COc1ccc(-c2cc(N3CCCN(C(=O)c4ccc(OC)cc4C)CC3)n[nH]2)cc1 | ?
COCC(=O)NC[C@@H]1C=C(C)[C@H](CC(=O)N2CCN(C)CC2)C[C@H]1C(C)C | 2%[70.6 µM]
CN(C)c1ccc(-c2nnc([C@H]3CCN(Cc4ccccc4F)C3)o2)cc1 | -4%[70.6 µM]
CN(Cc1cccnc1)Cc1nc(C2(O)CCN(Cc3ccccc3C(F)(F)F)CC2)cs1 | -21%
c1ccc(-c2ccnc3nc(-c4cccs4)nn23)cc1 | 0%
COc1ccc(CNC(=O)C2(c3ccc(NC(C)=O)cc3)CCCCC2)c(OC)c1 | 3%
Cc1ccc(C2Cn3nnc(-c4nc(-c5cccc(Br)c5)no4)c3CO2)c(C)c1 (configuration not stated) | 9%
CCc1nc2c(c(-c3ccc(Cl)cc3)n1)CN(C(=O)c1ccccc1)CC2 | 4%

(listing goes on)
compound | NPR1 antag
O=C(C1CCOCC1)N1C[C@H]2OC(=O)N(CCc3cccc(Cl)c3)[C@H]2C1 | 3%
CC(C)CS(=O)(=O)N[C@H](C)c1onc(-c2cccnc2)c1C(=O)O | 3%[70.6 µM]
CN1[C@@H](CCC(=O)NCc2ccc(F)cc2)CNC(=O)[C@H]2NCC[C@H]21 | 2%[70.6 µM]
C[S+](=O)([O-])N1CC2(Cc3ccccc31)CN(C(=O)C1CCCC1)C2 | -2%[70.6 µM]
CN(C)c1ccc(CN2CCC3(CC(Cc4ccccc4)=NO3)C2)cc1 (configuration not stated) | -4%
COc1ccc(C(=O)N2C[C@@H]3C[C@H](C2)c2ccc(-c4ccc5ccccc5c4)c(=O)n2C3)cc1 | -2%
Cc1ccc(C)c(C(=O)Nc2cccc(-c3nnc4n3CCCC4)c2)c1 | -14%
COc1cccc(-c2nc(-c3nnn4c3COC(c3ccccc3Cl)C4)no2)c1OC (configuration not stated) | -2%
O=C(CN1C(=O)NC2(CCS(=O)(=O)CC2)C1=O)Nc1ccc(F)cc1F | 5%
CC[C@H]1CN(C(=O)Nc2cccc(C(F)(F)F)c2)CC[C@H]1CC(=O)N[C@@H](CO)CC(C)C | -2%
CCC1CCCCN1CCNC(=O)c1cc2c(s1)CN(C1CCCC1)C2 (configuration not stated) | 5%
COCc1cc(Cn2cc(-c3cncnc3)nn2)[nH]n1 | 4%

The list is partial; rates above refer to the full screens.
